GIV-Gai inh: GIV-Galpha-i interaction inhibition; P08753; Galpha-i3/FITC-GIV peptide fluorescence polarization, 90 min; hits give low values; scaled: aluminum fluoride 0%, vehicle 100%; percent of control (FP), % (concentration not given with the values); 210,000 tested, 0.42% active; AID 1224905;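 active = replicate mean at 85% of control or lower, very high polarization wells dropped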;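 also: wells of about 15 µL received 100 nL stock; the first replicate is given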
Target sequence (P08753 whole entry, looked up): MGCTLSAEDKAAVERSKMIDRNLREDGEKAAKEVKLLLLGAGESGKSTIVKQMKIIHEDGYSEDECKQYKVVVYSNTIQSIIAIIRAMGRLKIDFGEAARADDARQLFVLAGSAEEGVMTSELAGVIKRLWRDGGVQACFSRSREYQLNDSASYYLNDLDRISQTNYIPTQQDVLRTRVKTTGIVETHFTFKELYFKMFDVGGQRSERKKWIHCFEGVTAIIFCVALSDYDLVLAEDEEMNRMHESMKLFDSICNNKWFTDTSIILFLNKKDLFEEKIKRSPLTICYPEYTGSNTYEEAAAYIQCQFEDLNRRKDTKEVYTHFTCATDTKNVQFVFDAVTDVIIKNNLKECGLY
HCMV NEC inh: disrupts HCMV UL50-UL53 complex binding; HTRF UL50-UL53 interaction, normalized percent inhibition; inhibition, % (test concentration not listed); 190,000 tested, 0.15% active;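 active = both replicates at 50% or more, plus weaker picks with an unusually low signal ratio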;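 also: stock transfer was 100 nL into about 20 µL; 0% = negative control wells and 100% = wells with untagged competitor protein; inactives centre near -12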
Sa growth 42C: S. aureus growth inhibition; 170,000 tested, 0.53% active; S. aureus RN4220 growth, OD600, 20 h, 42 °C; hits give low values; AID 720641; relative growth, % (test concentration not listed);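 active = growth at 42 °C up to 50% and 20 or more points under that at 30 °C, or under 10% at both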;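 also: 300 nL library stock went into each well; scaled to the means of positive and negative controls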
Sa growth 42C second temp: also measured in Sa growth 42C; calls as there; relative growth, %; measured here: growth at 30 °C;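 optical density after 20 h as mean of two plates; 100% = untreated growth and lower means inhibition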
Active calls of the source: *; / = not tested or not shown; & = joins results of further samples.

SMILES	GIV-Gai inh	HCMV NEC inh	Sa growth 42C	Sa growth 42C second temp
CCOc1ccccc1NC(=O)CN1C(=O)C2(SCC(=O)N2c2ccc(C)cc2)c2ccccc21 (centres undefined)	106	/	94	95
CCc1nn(CC(=O)N2CCN(c3cccc(C)c3C)CC2)c(=O)c2cc3sccc3n12	105	13	91	91
COc1ccc(C2Nn3c(nnc3-c3ccccc3)SC2C(=O)Nc2ccccc2)cc1 (centres undefined)	105	2	99	96
COc1cc(OC)c(N2C(=O)CN(S(C)(=O)=O)CC2(C)C(=O)NC2CCCC2)cc1Cl (centres undefined)	104	12	/	/
N=c1n(CCN2CCCCC2)c2ccccc2n1CC(O)COc1ccc(Cl)cc1Cl (centres undefined)	106	10	0.3*	-0.7*
CCOC(=O)c1[nH]c(C)c(/C=N/O)c1C	106	-2	116	72
CSC1=N/C(=C\c2cccnc2)C(=O)N1c1ccccc1	106	-61	99	87
Cc1ccccc1-c1nnn(CC(=O)NC(=O)NC(C)C)n1	/	14	98	94
COc1ccc(Nc2nc(C)c3ncn(-c4ccc(OC)c(Cl)c4)c3n2)cc1Cl	102	-24	/	/
N#Cc1c(SCC(N)=O)nc2c(c1-c1ccc(O)cc1)CCCC2	/	8	93	96
COC(=O)c1ccc(C(=O)OC)c(NC(=O)c2cnn3c(C(F)F)cc(-c4ccccc4)nc23)c1	98&104	-17	102	91
CCCCOc1cccc(C(=O)Nc2cc(NC(=O)c3ccco3)ccc2OC)c1	108	-14	87	89
COc1cc(CNCCSc2nnnn2C)cc(Br)c1OCc1ccc(Cl)cc1	98	-23	/	/
CCOc1ccc(NC(=O)N2CCN(c3nnc(C)c4c(C)n(-c5ccccc5)nc34)CC2)cc1	108	/	91	96
Cc1ccc(NC(=O)Cn2c(-c3cncs3)nc3ccccc32)cc1Br	103	/	143	94
Cc1c(C(=O)Nc2ccncc2)oc2ccccc12	97	-12	93	76
O=S(=O)(Nc1cccc(-c2ccc(N3CCCCC3)nn2)c1)c1ccc(F)cc1F	98&104	-5	92	99
Cc1ccn2c(=O)c(Cc3nnc(SCC(=O)NCc4nc5ccccc5[nH]4)n3C)c(C)nc2c1	106	-19	/	/
COc1ccc(-c2cc(C(F)(F)F)nc(SCCC(=O)Nc3ccc(NC(C)=O)cc3)n2)cc1	98	-28	91	86
CN1CCc2c(sc(-n3cccc3)c2CNC(=O)NCCc2ccccc2)C1	103	3	/	/
COc1ccc2c(c1)CCc1c(C(=O)Nc3c(C)nn(Cc4c(Cl)cccc4Cl)c3C)noc1-2	109	2	84	99
CN(CC(=O)Nc1ccc2[nH]c(=O)[nH]c2c1)c1ccc2ccccc2c1	/	-21	97	88
CCn1c(=O)c(N2CCC(C(=O)NCc3ccccc3Cl)CC2)nc2cccnc21	100	-25	/	/
CCOC(=O)c1nnn(CC(=O)NC(=O)Nc2cccc(CC)c2)c1C(=O)OCC	94	-1	106	83
Clc1ccc(OCc2nc3ccccc3n2CN2CCOCC2)cc1	/	-59	99	86
More structures follow.
SMILES	GIV-Gai inh	HCMV NEC inh	Sa growth 42C	Sa growth 42C second temp
CC(C)c1ccc(-c2nc(N3CCCCCC3)nc3n[nH]c(N)c23)cc1	98	2	98	95
CCc1oc(C(=O)O)cc1CN(CC)CC	100	-23	88	86
CC(C)N(C(=O)CN(C#N)c1nc(N(C)C)nc(N(C)C)n1)c1ccccc1	103	-15	/	/
Cc1cc(C)c2c3n(nc2n1)C(=O)NC(C(F)(F)F)(C(F)(F)F)N3	/	-61	119	97
O=C(Cc1ccccc1Br)N1CCC(c2nc(-c3ccc(F)cc3)no2)CC1	101	6	/	/
CCOc1ccc(-c2nnc(SCC(=O)NC3CCCCC3)nc2-c2ccc(OCC)cc2)cc1	102	/	121	94
Cc1ccc(NC(=O)CN2C(=O)C3(SCC(=O)N3c3ccc(F)c(F)c3)c3ccccc32)c(C)c1 (centres undefined)	105	/	117	87
Nc1nnc(C2=C(O)/C(=C/c3ccccc3)CC2)s1	/	-42	94	78
O=C(COc1ccccc1F)Nc1ccc2nc(SCC(=O)N3CCc4ccccc43)sc2c1	99	-7	98	86
COc1cccc(NC2=CC(c3ccc(C(C)C)cc3)N(c3cccc(OC)c3)C2=O)c1 (centres undefined)	104	-8	93	89
O=S1(=O)C[C@H](NCCc2c[nH]c3ccccc23)[C@@H](S(=O)(=O)c2ccccc2)C1	94	-4	/	/
O=C(C1Sc2nnc(-c3ccccc3)n2NC1c1ccccc1)N1CCCC1 (centres undefined)	108	/	120	83
Cc1c(C(=O)O)sc2c1C(=O)NS2(=O)=O	/	-4	103	88
N#CC1=C(c2ccccc2)COC1=O	140	-22	/	/
CCSc1nc(-c2ccc(Cl)cc2)nc2c1Cc1c(CO)cnc(C)c1O2	98	/	91	91
C=CCn1c(=O)c(C(=O)Nc2nc(C)cc(C)n2)c(O)c2ccccc21	104	-30	/	/
COc1ccc(N2CCN(C(=O)c3ccc(C#CC(C)(C)O)cc3)CC2)cc1	102	-11	98	88
O=C(CSc1nc2nc[nH]c2c(=O)[nH]1)Nc1ccc(F)cc1	101	6	/	/
CCN(c1ccc(F)cc1)S(=O)(=O)c1ccc2[nH]cc(C(=O)NCC3CCCO3)c(=O)c2c1 (centres undefined)	104	-20	109	96
O=C1Nc2cc(C(=O)N3CCN(c4ccccc4)CC3)ccc2Sc2ccccc21	104	/	99	89
CCN(c1ccc(C(=O)CSc2nnc(C(F)(F)F)n2C)cc1)S(C)(=O)=O	/	-26	90	98
CCOc1cc(C(=O)NCCc2nc3ccccc3[nH]2)cc(OCC)c1OCC	115	-20	/	/
COc1ccc(-n2cnc3cc(C(=O)NCc4ccccc4OC)ccc32)cc1	103	/	110	77
CCCCNc1sc(S(=O)(=O)CCC)nc1S(=O)(=O)c1ccc(C)cc1	106	0	105	97
Cc1ccc(CNC(=O)CCCN2C(=O)COc3ccc(C)cc32)cc1	99	/	97	85
Later entries
SMILES	GIV-Gai inh	HCMV NEC inh	Sa growth 42C	Sa growth 42C second temp
Cn1c(SCC(=O)c2ccc3c(c2)CCCC3)nc2ccccc2c1=O	/	-6	96	84
CC(CCc1ccco1)NC(=O)Cn1ncc2ccccc21 (centres undefined)	113	/	104	82
CCOC(=O)c1ccc(-c2ccc(/C=C3\SC(N=Nc4c(O)[nH]c5ccccc45)=NC3=O)o2)cc1	119	-26	64	45
Cc1ccc(S(=O)(=O)NCc2ccc(/C=C(/C#N)C(=O)NCc3ccccc3)o2)cc1	111	-81	130	87
C=Cc1ccc(CN2C(=O)c3ccccc3Sc3ccc(C(=O)OCC4CCCO4)cc32)cc1 (centres undefined)	106	1	/	/
CCn1c(=O)c(=O)[nH]c2cc(C(=O)Nc3nc(CN4CCCCC4)cs3)ccc21	/	-15	106	92
CC(C)n1cnnc1SCC(=O)Nc1ccc(F)cc1	/	8	105	95
C=C(C)c1cccc(C(C)(C)NC(=O)Nc2ncccn2)c1	/	-27	129	90
Cc1noc(C)c1S(=O)(=O)NC(C)C(=O)O (centres undefined)	101	-9	98	78
N#C/C(=C(\O)CCl)c1nnc2n1CCCCC2	/	-15	80	85
Cc1cc2c(=O)n(CC(=O)NCC(=O)N3CCC(C(N)=O)CC3)cnc2s1	101	-9	114	97
COc1ccc(-c2nc3nc(C)cc(C)n3c2Nc2ccc(Cl)cc2)cc1	116	-11	/	/
CCn1c(CSc2nnc(COc3ccc(OC)cc3)n2-c2ccccc2F)nc2cc(C(=O)O)ccc21	/	-21	81	84
COc1cccc(N2CC(NC(=O)/C=C\c3ccc(OC)c(OC)c3)CC2=O)c1 (centres undefined)	98	/	139	80
COc1ccc(C)cc1NC(=O)CN1c2ccccc2S(=O)(=O)c2ccccc21	94	/	87	92
COc1ccc2c(Sc3ccc(Cl)cc3)c(C(=O)N3CCCCC3)[nH]c2c1	99	-11	101	72
Cc1ccc(N2C(=O)/C(=C\c3ccc4c(c3)OCO4)N=C2SCC(=O)N2CCN(C(=O)c3ccco3)CC2)cc1	/	-34	93	89
O=C(CN1C(=O)C2CCCC2=Nc2ccccc21)NC1CCCCC1 (centres undefined)	103	7	/	/
CCn1c(C2CC(=O)N(C(C)C)C2)nc2ccccc21 (centres undefined)	105	-22	/	/
Cc1cc(C(=O)Cn2cc(S(=O)(=O)N(C)C)ccc2=O)c(C)n1Cc1ccco1	/	5	103	96
O=C(NCCN1CCCCC1)c1ccc2nc(-c3ccc(F)cc3)c(-c3ccc(F)cc3)nc2c1	102	-20	/	/
Cc1sc2ncn(C)c(=O)c2c1-c1ccccc1	107	-10	106	96
CCCCN(C)S(=O)(=O)c1ccc(C(=O)Nc2cccc3c2C(=O)NC3=O)cc1	105	-29	86	80
O=C(COCc1nc2ccccc2c(=O)[nH]1)NCC1CCCCC1	101	-5	96	110
COc1cccc(CNC(=O)CCNS(=O)(=O)c2ccc3c(c2)oc(=O)n3C)c1	104	-49	106	86
New compounds follow.
SMILES	GIV-Gai inh	HCMV NEC inh	Sa growth 42C	Sa growth 42C second temp
COc1cc(-c2nc3ccccc3c(=O)n2NC(=O)COc2ccc(Cl)cc2Cl)cc(OC)c1OC	103	-31	/	/
O=C(OCC(=O)N1CCCCC1)c1c[nH]c(=O)[nH]c1=O	/	-7	102	89
O=c1cc(N2CCN(S(=O)(=O)c3ccccc3)CC2)nc2sc(-c3ccccc3Cl)nn12	108	-33	/	/
CCOC(=O)Cc1nnc(Nc2ccc(C)cc2C)c2ccccc12	98	-14	/	/
CC(C)(C)NC(=O)C(C(=O)c1ccccc1)n1ccccc1=O (centres undefined)	/	-10	98	86
COc1cc(C=C2C(=O)N(C)C(=O)N(C)C2=O)cc(Br)c1OCCOc1ccccc1	106	-7	/	/
Cc1cccc(C(=O)Nc2nccs2)c1	104	-6	102	75
O=c1c(-c2ccc(Cl)cc2)c(C(F)(F)F)oc2c(CN3CCCCC3)c(O)ccc12	108	-7	103	107
O=C1CC(c2ccccc2)Sc2ccccc2N1 (centres undefined)	107	-5	101	87
O=C(Cn1c2ncccc2c(=O)n1-c1ccccc1)Nc1cccc(C(F)(F)F)c1	105	/	108	90
CCCn1c(CCC(=O)Nc2ccc(C)c(Cl)c2)nc2cccnc21	109	-32	122	90
Cc1noc(C)c1COc1cccc(C(=O)N2CCN(c3ccccc3)CC2)c1	/	-23	91	91
C/C(=N\n1cnnc1)c1ccc2ccccc2c1	/	-81	97	93
CCN(C(=O)CSc1nc(C)cc(C(F)(F)F)n1)c1ccccc1	103	-3	113	99
O=C(CCNS(=O)(=O)c1ccc2c(c1)CCN2C(=O)C1CC1)Nc1ccc(OC(F)(F)F)cc1	102	/	106	89
CCNS(=O)(=O)c1cc(C(=O)N2CCCC2)cs1	111	-36	/	/
Cc1nc2ccccc2n1CC(=O)O	/	-32	93	90
Cc1ccc(-c2csc(NC(=O)c3c(-c4ccc(F)cc4)nc4n3CCS4(=O)=O)n2)cc1	106	-17	/	/
Cc1ccccc1Nc1c(C(=O)N2CCOCC2)cnc2ccccc12	99	-7	/	/
Cc1ccc(Cl)cc1NC(=O)c1c2c(nc3ccccc13)C(=O)N(C1CCCCC1)C2	101	15	/	/
CCC(C)C(NC(=O)C1CCC(C)CC1)C(=O)Nc1cc(OC)ccc1OC (centres undefined)	104	-6	95	87
O=C(Cn1nc2c3c4c(sc3ncn2c1=O)CCCC4)NC1CCCC1	117	10	/	/
Cc1ccc2c(c1)c(=O)c(C(=O)c1ccncc1)cn2CC(=O)Nc1c(C)cccc1C	103	/	94	89
Cc1ccc(-c2nnc(SCCC(=O)N3CCOCC3)o2)cc1	104	-15	92	86
CNc1nc2c(c(=O)n(C)c(=O)n2C)n1Cc1cccc(C)c1	103	4	89	95
Continued:
SMILES	GIV-Gai inh	HCMV NEC inh	Sa growth 42C	Sa growth 42C second temp
O=C(CSc1nc2ccccc2nc1N1CCCC1)NCCc1ccc(Cl)cc1	104	/	130	87
CN(C)C(=O)c1nnc(Cc2ccc(Cl)cc2)o1	98	-1	108	83
COc1ccc(CN(C)C(=O)C2CCCN2C(=O)c2cccs2)cc1 (centres undefined)	/	-23	88	85
CCOC(=O)c1sc(N)c(C#N)c1COC(=O)c1ccc(S(=O)(=O)N2CCCC2)cc1	/	4	97	98
N#CCn1c(COC(=O)C2CC(=O)N(CCc3ccccc3)C2)nc2ccccc2c1=O (centres undefined)	/	-32	69	93
CCc1ccc(S(=O)(=O)c2cnc(SCC(=O)Nc3ccc(OC)cc3OC)[nH]c2=O)cc1	100	4	98	86
